# HSD17B inh = qHTS Assay for Inhibitors of HSD17B4, hydroxysteroid (17-beta) dehydrogenase 4; Potency, µM (doses to about 57.1 µM), for the others: at the highest dose activity change, negative = inhibition, actives largely listed as inhibitors; recombinant HSD17B10, NADH fluorescence kinetic; many of its hits are not listed in these tables; 75,000 compounds, 7.6% hits; active = well fitted inhibition curve with a large enough effect; inconclusive = small, poorly fitted or top-dose-only effect; inactive = no such curve, though single readings can be large or run the other way;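 note: the protocol describes HADH2 (HSD17B10) and not the HSD17B4 of the title; nearly all actives have a fitted effect of over 70% in size; most hits overshoot -100% by far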
#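 Enzyme plus compound, 15 min room temperature; substrate mix added (NAD+ 1 mM, beta-hydroxybutyryl-CoA 90 uM final); plates read kinetically for NADH fluorescence. HADH2 was His-tagged, E. coli-derived, 20 nM.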
# * hit, by the source's call; ? = inconclusive; [ ] = remark or other dose. % is set by controls: 0 for no effect and ±100 for the full control effect; potency is the fitted concentration of half-maximal effect. These rows are one share of the data; count on the stated rates, not on these rows.
SMILES,HSD17B inh
Cc1c(OCC(=O)OC(C)(C)C)ccc2c3c(c(=O)oc12)CCC3,25.1µM*
CCC1=C(OC(=O)N(CC)CC)N2C(=O)OC(=NCCc3c[nH]c4ccccc34)[C@]2(C)[C@H]2C1=CC[C@H]1C(=O)N(CC(=O)OC)C(=O)[C@H]12,0.3%
CC(C)CO/N=C1/C[C@@H](O)[C@@H](O)[C@@H]2[C@@H]3C(=O)N(c4cccc(Oc5ccccc5)c4)C(=O)[C@H]3CC[C@@H]12,2.6%[11.4 µM]
Cc1ccnc2nc(C(=O)OCCOc3cccc(Br)c3)nn12,10.0%
COc1cc(CN2CCC(C(=O)N3CCC(C)CC3)CC2)cc(Br)c1O,-7.4%
COc1ccc2c3c(cccc13)NN=C2C,?
COc1ccc(CNc2ncnc3ccc(-c4cccnc4)cc23)c(OC)c1,?
Cc1oc(-c2ccc(Cl)cc2)nc1CN1CCCC(C(=O)NCc2ccccn2)C1 (stereo not drawn),11.4%
CCOCC(=O)N1CCN(c2ccc(F)cc2)CC1,2.7%
Clc1ccc(OCc2nnc(-c3ccccc3Br)o2)c(Cl)c1,0.4%
Cc1ccc(CS(=O)(=O)CCC(=O)NCCCN2CCCC2=O)cc1,3.5%
CCOC(=O)CSC1=C(C#N)C(c2ccc(C)s2)CC(=O)N1 (stereo not drawn),9.7%
C=CCSc1nnc2c(n1)OC=Nc1ccccc1-2,-2.3%
c1ccc(CCN2CN=C(Nc3nc4ccccc4o3)NC2)cc1,-3.1%
O=C1[C@H]2[C@H]3[C@H](O)[C@H](O)C/C(=N/OCc4ccccc4)[C@H]3CC[C@@H]2C(=O)N1Cc1ccc2c(c1)OCO2,0.0%[11.4 µM]
CC(Oc1cccc(Cl)c1)C(=O)Nc1cc(=O)n(C)c(=O)n1C (stereo not drawn),6.5%
Cc1cnc(CNc2ncnc3ccc(-c4ccccc4Cl)cc23)cn1,7.2%
COc1ccccc1CN1CC2(CCN(S(C)(=O)=O)CC2)C1,4.1%
CCn1c(=O)cc(O)c2ccccc21,-14.9%
CCOc1ccccc1C(=O)Nc1ccc(S(=O)(=O)N2CCOCC2)cc1,-2.3%
COc1ccc(-c2c(NC(C)=O)n(C)c3ccccc3c2=O)cc1,?
COc1ccc(NC(=O)N2CC[C@@]3(CCCN(C(=O)c4cc(C(F)(F)F)cc(C(F)(F)F)c4)C3)C2)cc1,3.5%
COc1ccc(S(=O)(=O)n2cnc3cc(C)c(C)cc32)cc1,-1.5%
O=C1NCC(O)=C1C=NCCCO,-1.5%
CCCCCn1c(=O)[nH]c2cc(C(=O)NCCCN(CC)CC)ccc2c1=O,25.1µM*
Nc1ccn(-c2ccc(Cl)cc2)c(=O)c1,11.2%
O=C(COC(=O)CCN1C(=O)c2ccccc2C1=O)Nc1ccc(S(=O)(=O)N2CCCC2)cc1,-2.4%
Cc1cc(C(=O)Nc2sc3c(c2C#N)CCC(C)C3)no1 (stereo not drawn),-0.5%
CCOC(=O)N1CCN(C(=O)CSc2nnc(-c3ccc(C)c(C)c3)o2)CC1,-0.7%
COc1cc(C(=O)OC(C)CN2CCOCC2)cc(OC)c1OC (stereo not drawn),11.8%
Cc1ccc(-c2ccc(CCC(=O)O)n2C(C)C)cc1,20µM*
OC(COc1ccc(Cl)cc1)CN1CCCCC1 (stereo not drawn),5.6%
c1ccc(-c2ccc(-c3nc(-c4ccccn4)no3)cc2)cc1,?
Cc1ccc(NC(=O)C2CCCNC2=O)nc1 (stereo not drawn),2.4%
COc1ccccc1CNc1nc2nc(C)c(C)c(=O)n2[nH]1,5.1%
O=C(CNS(=O)(=O)c1cccs1)N1CCCC1,-2.7%
COC(=O)[C@@]1(Cc2ccccc2)C=C[C@@H](C)N1C(C)=O,0.8%
CCOC(=O)c1nc2ccccc2s1,-3.7%
CCOC(=O)N1CCN(C(=O)CN2C(=O)COc3ccc(C(C)(C)C)cc32)CC1,3.7%
CCOC(=O)c1sc2ncn(C(CC)C(=O)OC)c(=O)c2c1C (stereo not drawn),0.9%
CCCn1nnc(NC(=O)c2ccc(Br)cc2)n1,-0.9%
CC(=O)N1CCN(c2ccccc2NC(=O)COc2cc(C)ccc2C(C)C)CC1,?
O=C(COc1ccccc1Cl)NCc1ccco1,10.1%
COC(=O)c1ccc(C(NC(=O)OCc2ccccc2)/C(F)=C/[C@@H](C)C(=O)N(C)Cc2cccnc2)cc1 (stereo partly drawn),11.4%
C[C@H]1C=C2C=C[C@H](C)[C@H](CC[C@@H]3C[C@@H](O)CC(=O)O3)[C@H]2[C@@H](OC(=O)[C@@H](C)CCO)C1,1.6%
CCC(=O)NCc1nc2ccccc2n1Cc1ccccc1F,-10.1%
Cc1ccc(-c2nc3ncccn3c2Nc2ccc3c(c2)OCO3)o1,-26.8%
COc1ccc(CC(CC(=O)O)C(=O)Nc2ccc(OC)cc2)cc1 (stereo not drawn),17.7%
COc1ccc(NC(=O)c2cc3n(n2)C(C(F)(F)F)CC(c2ccc4c(c2)OCO4)N3)cc1OC (stereo not drawn),3.7%
Cn1c(CNc2cccc(Cl)c2)nnc1SCC(=O)OC1CCCCC1,2.4%
Cc1cccc(N(C(=O)Cn2nnc3ccccc32)C(C(=O)NCc2ccco2)c2ccncc2)c1C (stereo not drawn),-5.6%
Clc1ccccc1C1SCC2Nc3ccccc3CN21 (stereo not drawn),-9.9%
CC(=O)N[C@H]1[C@@H](O[C@@H](C)C(=O)O)[C@H](O)[C@H](CO)O[C@@H]1O,1.6%[25.6 µM]
O=C(O)CCC(=O)OC1CC2CCC1C2 (stereo not drawn),2.4%
Cc1c(NC(=O)COC(=O)Cc2ccc(Cl)cc2)c(=O)n(-c2ccccc2)n1C,3.2%
Cc1cc(NS(=O)(=O)c2ccc(-c3ccccc3)cc2)no1,-5.2%
COC(=O)c1sccc1NC(=O)c1cccnc1,4.5%
CCOC(=O)c1cc2sccc2n1CC(=O)Nc1ccc(OC)cc1OC,-3.6%
CCCn1c(C)nc2c(NCCCCN(CC)CC)nc(C)nc21,?
N#Cc1c(N)oc(-c2cccs2)c1-c1cccs1,-22.7%
# Continuation:
SMILES,HSD17B inh
COc1cccc(C2CC(c3ccc(Cl)cc3)n3nc(N)nc3N2)c1 (stereo not drawn),5.3%
CCc1nnc(NC(=O)CSc2nnc(CSc3nc(C)cc(C)n3)n2C)s1,-5.1%
COc1cc(-c2nc(-c3ccc(Br)o3)no2)cc(OC)c1OC,?
COc1ccc(-c2nc3nc(C)c(Cc4ccccc4)c(=O)n3[nH]2)cc1,25.1µM*
COC(=O)NC(/C(C(=O)OC)=C(\C)NCc1ccccc1)c1ccc2ccccc2c1 (stereo not drawn),3.98µM*
Cc1ccc(S(=O)(=O)NCCC(=O)N2CCN(Cc3ccccc3)CC2)cc1,11.5%
O=C(C1CCCN1S(=O)(=O)c1cccc2cccnc12)N1CCN(c2ccccc2)CC1 (stereo not drawn),5.3%
CC(=O)Nc1ccc2nc(-c3cccs3)[nH]c2c1,15.8µM*
CC(C)C(OC(=O)c1cc2occc2n1C)C(=O)NCc1ccc2c(c1)OCO2 (stereo not drawn),3.1%
O=C(CSc1nc2c(c(=O)n1-c1ccc(Br)cc1)SCC2)NCC1CCCO1 (stereo not drawn),4.5%
Cc1ccc(NC(=O)C2CCN(S(=O)(=O)c3cccc4cccnc34)CC2)nc1,0.3%
O=C(c1cnc(N2CCN(c3ncccn3)CC2)c2ccccc12)N1CCN(c2ncccn2)CC1,-7.5%
CCOc1ccccc1-n1c(SCC(=O)N2CCCC2)nnc1-c1ccoc1C,3.8%
C=CCCCC,-1.0%
CCc1ccc(NC(=O)Cn2c(SC)nc3ccccc32)cc1,1.3%
CCOC(=O)c1c(C)[nH]c(C(=O)Cn2nnc(-c3ccccc3Cl)n2)c1C,-1.2%
CC1CCN(CCc2nc3cc(NS(=O)(=O)c4ccc(F)cc4)ccc3n2C)CC1,25.1µM*
COC(=O)c1cc(OC)c(OC)cc1NC(=O)c1ccoc1C,12.6µM*
Cc1nc(N2CCN(c3ccccc3)CC2)c2c3c(sc2n1)CCC3,-2.6%
Cc1cc(C)c2c(n1)nn1c(NCCN3CCOCC3)cc(C)nc21,3.16µM*
Cc1cc(C(=O)CSc2nnc(-c3ccccc3)n2C)c(C)n1C,2.3%
COc1ccc(N2CCN(C(=O)c3cn(C4CCCC4)c(=O)c4c3c3ccccc3n4C)CC2)cc1,?
COc1ccc(C2(C(N)=O)CCCCC2)cc1OC,14.6%
COc1ccc(C)cc1NC(=O)c1ccc2c(c1)OCO2,-11.4%
O=S(=O)(NCc1cn2ccsc2n1)c1ccc2c(c1)OCCO2,4.4%
Cc1csc(SCC(=O)N2CCN(S(=O)(=O)c3ccccc3)CC2)n1,9.5%
O=C(Nc1ccc2nsnc2c1)c1cccs1,2.8%
N#Cc1c(C(F)(F)F)cc(-c2ccco2)nc1SCc1ccccn1,31.6µM*
CN1CCN(CC(=O)N2c3ccccc3C(=O)Nc3cccnc32)CC1,-3.6%
CCOC(=O)c1ccc(NC(=O)CSc2nnc(CNC(=O)c3ccccc3F)o2)cc1,3.9%
CCC(C)(C(=O)NC1CCCC1)N(Cc1cccs1)C(=O)Cc1cccs1 (stereo not drawn),1.4%
Cn1c(SCC(N)=O)nnc1C1CCN(C(=O)NC2CCCCC2)CC1,3.3%
Cc1ccc(S(=O)(=O)NCC(=O)N(CC(=O)NC2CCCC2)c2ccc3c(c2)OCCO3)cc1,6.3%
CCn1cc(C(=O)N(CCCN2CCOCC2)Cc2ccco2)c(=O)c2ccc(C)nc21,2.5%
Cc1cc(C)c2[nH]c(=O)c(CN(CC3CCCO3)C(=O)c3cnccn3)cc2c1 (stereo not drawn),2.0%
N=C(N)S/C=C\C(=O)O,-6.0%
Cc1csc(NC(=O)C2C3C=CC(O3)C2C(=O)O)n1 (stereo not drawn),2.0%
NC(=O)CSc1nnc(-c2cccnc2)n1CCc1ccccc1,-3.2%
Cc1cc(Cl)c(S(=O)(=O)Nc2ccc3c(c2)OCO3)cc1OCC(N)=O,-17.6%
CCOC(=O)c1ccc(NC(=O)C(C)NS(=O)(=O)c2ccc(OC)cc2)cc1 (stereo not drawn),-25.4%
Cn1c2ccccc2c2c(C(=O)N3CCN(c4ccccn4)CC3)cn(C3CCCC3)c(=O)c21,25.1µM*
COc1cccc(-c2nc(CS(=O)(=O)CC(=O)NCc3ccc(Cl)cc3)c(C)o2)c1,0.6%
N#CCCn1ccc(NC(=O)c2ccc(Cl)cc2)n1,-0.2%
Cc1sc2nc(SCC(=O)N3CCCC3)[nH]c(=O)c2c1C,1.6%
CCCn1c(SCC(=O)NC(C)(C)C)nnc1C(C)C,4.6%
CCOCCO,-0.3%
CCC(C)C(=O)Nc1nnc(-c2cccs2)s1 (stereo not drawn),20µM*
Cc1ccc(/C=C/C2=CC3(C)CC2(C)C(c2ccc(C)cc2)CC3=O)cc1 (stereo not drawn),-6.1%[11.4 µM]
Cc1ccc(-n2c(SCC(=O)N3CCOCC3)nnc2-c2cccnc2)cc1,-2.8%
COc1cc(C2C(C#N)=C(N)Oc3c2oc(CO)cc3=O)ccc1OC(C)C (stereo not drawn),-28.5%
Cc1nn(-c2ccccc2)c(Cl)c1C1C(C#N)=C(N)OC2=C1C(=O)CC(C)(C)C2 (stereo not drawn),-5.5%
COCn1c(-c2ccc(OC)c(OC)c2)nc2ccccc21,25.1µM*
O=C(O)c1csc(Br)c1Br,-0.9%
Cc1ccc(NC(=O)COC(=O)Cn2c(C)csc2=O)cc1C,8.1%
O=C(NCCC1=CCCCC1)C1CCN(S(=O)(=O)c2cccc3cccnc23)CC1,2.4%
COc1cc(S(=O)(=O)N2CCN(C)CC2)ccc1Cl,8.2%
CC(Oc1ccccc1)C(=O)Nc1ccc(S(=O)(=O)NCC2CCCO2)cc1 (stereo not drawn),-5.6%
CCSc1nnc(NC(=O)c2ccc3c(c2)OCO3)s1,-1.4%
COc1cc(OC)c(C(=O)Nc2ccc(N(C)C)cc2)cc1OC,-8.4%
CS(=O)(=O)N(CCc1ccccc1)CC(=O)N1CCN(c2ccccc2)CC1,5.5%
# (cont.)
SMILES,HSD17B inh
Cc1ccc(O)c(-c2cc(C(=O)NCc3ccncc3)[nH]n2)c1,9.7%
CCOC(=O)C1C(=O)CC(C)(O)C(C(=O)OCC)C1c1ccc(C)s1 (stereo not drawn),10.1%
C[C@@](Cc1ccc(O)c(O)c1)(NN)C(=O)O,?
Cc1cc(OCC(=O)NCCN2CCOCC2)ccc1Br,8.4%
O=S(=O)(Nc1nc2ccccc2nc1NCc1ccco1)c1ccccc1,2.1%
CCOC(=O)c1c(NC(=O)c2ccc(Br)o2)sc(C)c1CC,31.6µM*
O=C(NCCCN1CCOCC1)c1c(F)cccc1F,1.0%
C/C(N)=C(/C#N)C(=O)CSc1nnc(Nc2c(C)cccc2C)s1,?
